Screening results as filed in PubChem BioAssay.
KCNQ2 inh = KCNQ2 channel blockers in CHO-K1 cells – cell-based, FluxOR thallium flux, B-score, primary screen (AID 2156). O88943. 20 min; hits give low values; only compounds with negative scores are shown here; some inactives read as strong as hits. B-score at 10 µM. 1.1% of 310,000 active;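 active means fluorescence ratio B-score at most minus 3 library SDs, with starting brightness B-score within 2 library SDs, cut at about -5.5 in these data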
Target sequence (O88943 whole entry, looked up): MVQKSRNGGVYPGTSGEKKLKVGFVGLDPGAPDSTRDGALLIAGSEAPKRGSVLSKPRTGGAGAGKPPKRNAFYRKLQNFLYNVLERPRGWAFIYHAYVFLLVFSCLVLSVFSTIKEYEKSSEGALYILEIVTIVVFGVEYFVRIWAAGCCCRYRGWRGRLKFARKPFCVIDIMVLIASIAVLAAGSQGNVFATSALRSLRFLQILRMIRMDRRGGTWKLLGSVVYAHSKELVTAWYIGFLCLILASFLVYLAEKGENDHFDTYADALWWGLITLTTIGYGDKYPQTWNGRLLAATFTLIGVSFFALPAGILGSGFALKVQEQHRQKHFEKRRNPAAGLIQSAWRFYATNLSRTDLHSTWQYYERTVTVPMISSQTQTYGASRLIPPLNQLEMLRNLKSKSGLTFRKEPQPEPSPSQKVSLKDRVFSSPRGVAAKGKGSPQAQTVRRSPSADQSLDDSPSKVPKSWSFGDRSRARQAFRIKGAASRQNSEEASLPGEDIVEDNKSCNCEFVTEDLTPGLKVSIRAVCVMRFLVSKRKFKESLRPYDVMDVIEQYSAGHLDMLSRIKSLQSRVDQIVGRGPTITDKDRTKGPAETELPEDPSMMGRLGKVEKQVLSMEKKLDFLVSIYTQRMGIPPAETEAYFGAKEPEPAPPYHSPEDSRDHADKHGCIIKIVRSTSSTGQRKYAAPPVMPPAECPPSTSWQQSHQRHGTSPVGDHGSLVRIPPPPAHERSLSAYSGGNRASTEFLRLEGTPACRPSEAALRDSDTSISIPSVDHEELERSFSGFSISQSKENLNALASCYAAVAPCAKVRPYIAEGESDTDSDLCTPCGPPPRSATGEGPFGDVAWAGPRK
KCNQ2 inh baseline = second read-out of KCNQ2 inh, no call of its own (marks repeat the call); B-score; measured here: initial fluorescence intensity artifact check;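 brightness before thallium and not channel activity; 0 = typical well and far values either way flag optical interference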
Numbers without * were called inactive; i = inactive.

SMILES	KCNQ2 inh	KCNQ2 inh baseline
CN1CCN(S(=O)(=O)c2ccc(Sc3nnnn3-c3ccccc3)c([N+](=O)[O-])c2)CC1	i	-1.3
Cc1ccc(CNCC(O)(c2ccccc2)c2ccc(Cl)cc2)cc1 (stereo not drawn)	-6.4*	1.1*
COc1ccc(C(=O)OCCN2C(=O)c3ccccc3C2=O)cc1	i	1.4
COc1cccc(-c2ccc(=O)n(CC(=O)Nc3cc4c(cc3NC(C)=O)OCCO4)n2)c1	i	0.32
CCSC1=N/C(=C/c2ccsc2)C(=O)N1c1ccccc1	i	-2.2
CC1CCCC(C)N1/N=C/c1ccccc1F (stereo not drawn)	i	-0.55
COc1cc(-c2[nH]ncc2CN(C)Cc2cc(C)[nH]n2)cc(OC)c1OC	i	-2.2
COc1ccc(Nc2cc(C)nc(NCc3ccccc3)n2)cc1	i	0.84
COC(=O)c1cn(NC(=O)c2cccc(OC)c2)c(=O)c2ccccc12	i	-1
Cc1occc1C(=O)NCc1nc(-c2ccc(Cl)cc2)no1	i	1
CC(OC(=O)c1ccc2c(c1)OCCO2)C(=O)c1ccccc1 (stereo not drawn)	i	-1.2
Cc1nc(CN(C)C(=O)CC2C(=O)NCCN2Cc2ccc(F)cc2)cs1 (stereo not drawn)	i	0.34
COc1ccc(OC)c(/C=N/c2oc(-c3ccco3)c(-c3ccco3)c2C#N)c1	i	2.8
Fc1ccccc1NC(=S)Nc1ccc(CN2CCOCC2)cc1	i	-0.16
CCCn1c(SCC(=O)N2CCCC(C)C2)nnc1-c1ccccn1 (stereo not drawn)	i	0.18

Brought forward from above: 5 compounds; new compounds follow.
SMILES	KCNQ2 inh	KCNQ2 inh baseline
CC(OC(=O)c1ccc2c(c1)OCCO2)C(=O)c1ccccc1 (stereo not drawn)	i	-1.2
Cc1nc(CN(C)C(=O)CC2C(=O)NCCN2Cc2ccc(F)cc2)cs1 (stereo not drawn)	i	0.34
COc1ccc(OC)c(/C=N/c2oc(-c3ccco3)c(-c3ccco3)c2C#N)c1	i	2.8
Fc1ccccc1NC(=S)Nc1ccc(CN2CCOCC2)cc1	i	-0.16
CCCn1c(SCC(=O)N2CCCC(C)C2)nnc1-c1ccccn1 (stereo not drawn)	i	0.18
Cn1cc(Cl)c(-c2nc3ccccc3[nH]2)n1	i	-0.48
CN(C)c1nccc(N(Cc2ccccc2)Cc2ccccc2)c1C#N	i	-0.32
O=C1Nc2ccccc2S/C1=C\C(=O)N1CCCC1	i	0.84
O=S(=O)(c1ccc(-c2csc(Nc3ccc(F)cc3)n2)cc1)N1CCCC1	i	-0.93
COc1ccc2c(c1)sc1nc(-c3ccccc3)cn12	i	-0.33
CCC1CCCCN1CCCNC(=O)CCC(=O)N1CCOc2ccccc21 (stereo not drawn)	i	0.62
CC(C)(C)c1ccc(-c2nnc(N)o2)cc1	i	0.15
CC(C)[C@H](NC(=O)Nc1cccc(C(F)(F)F)c1)C(=O)O	i	-0.93
Cc1ccc(NC(=O)c2cnc3ccccc3n2)cc1C	i	2.1
O=C(Nc1ccc(F)cc1)c1sc2cc(C(F)(F)F)cnc2c1-c1cccs1	i	0.27
Cc1ccc2nc(Nc3nc(C)cc(C(F)(F)F)n3)nc(C)c2c1	i	-0.47
COc1cc2cc(Oc3ccc4ccc(=O)oc4c3)c(=O)oc2cc1O	i	-0.97
Cc1cccc(OCC(=O)N(Cc2ccco2)C2CCS(=O)(=O)C2)c1 (stereo not drawn)	i	-0.2
C=CC[n+]1c(/C=C2\C=Cc3cc(C)ccc3N2CC)ccc2ccccc21	-9.8*	-3.6*
COc1cc(/C=C(\C#N)C(=O)c2c(C)[nH]c3ccccc23)cc(OC)c1OC	i	1.2
O=C(/C=C/c1ccc2c(c1)OCCCO2)c1ccccc1O	i	0.03
Cc1ccc(-c2nnc(SCC(=O)N/N=C/c3c(C)nn(-c4ccccc4)c3C)n2-c2ccccc2)cc1	i	-0.82
Fc1ccc(-c2ccnc3nc(N4CCN(c5ccccc5)CC4)nn23)cc1	i	-1.4
COc1cccc(CNC(=O)CCl)c1	i	-0.01
Cc1ccccc1OCC(=O)N1N=C(C(F)(F)F)CC1(O)C(C)(C)C (stereo not drawn)	-8.2*	-0.41*
COC(=O)c1c(NC(=O)c2ccco2)sc(C)c1C	i	-0.04
O=C1Nc2ccccc2Oc2cc([N+](=O)[O-])ccc21	i	0.99
CCOC(=O)CSc1ncc(OC)c(Sc2ccc(Cl)cc2)n1	i	-0.18
N#Cc1cc2cc3c(cc2nc1SCC(=O)N1CCOCC1)OCO3	i	0.9
COc1ccccc1C(=O)NC1CCCc2ccccc21 (stereo not drawn)	i	2.4
CCN(CC)S(=O)(=O)c1cccc(C(=O)N[C@H](C(=O)O)C(C)C)c1	i	0.37
Oc1cccc(C2c3[nH]c4ccccc4c3CCN2Cc2cnn(-c3ccccc3)c2)c1 (stereo not drawn)	i	-0.84
Cc1nnc(C)n1/N=C/c1cccnc1	i	-0.41
COC(=O)c1c(C)oc(C)c1S(=O)(=O)N1CCCCC1	i	-0.31
O=C(CSc1nnc(CN2CCOCC2)n1-c1ccccc1)Nc1ccc(Cl)cc1	i	-0.01

Single entries from the entries so far:
`COC(=O)c1c(NC(=O)c2ccco2)sc(C)c1C` – KCNQ2 inh baseline: -0.04
`COc1cccc(CNC(=O)CCl)c1` – KCNQ2 inh baseline: -0.01

Among those listed so far, these contain a thiophene ring, fused or not.
SMILES	KCNQ2 inh	KCNQ2 inh baseline
CCSC1=N/C(=C/c2ccsc2)C(=O)N1c1ccccc1	i	-2.2
O=C(Nc1ccc(F)cc1)c1sc2cc(C(F)(F)F)cnc2c1-c1cccs1	i	0.27
COC(=O)c1c(NC(=O)c2ccco2)sc(C)c1C	i	-0.04

Fetched by structure from the list above:
SMILES	KCNQ2 inh	KCNQ2 inh baseline
Fc1ccc(-c2ccnc3nc(N4CCN(c5ccccc5)CC4)nn23)cc1	i	-1.4
Cc1ccc(-c2nnc(SCC(=O)N/N=C/c3c(C)nn(-c4ccccc4)c3C)n2-c2ccccc2)cc1	i	-0.82
O=C1Nc2ccccc2Oc2cc([N+](=O)[O-])ccc21	i	0.99
COC(=O)c1c(NC(=O)c2ccco2)sc(C)c1C	i	-0.04
O=C(/C=C/c1ccc2c(c1)OCCCO2)c1ccccc1O	i	0.03
CCOC(=O)CSc1ncc(OC)c(Sc2ccc(Cl)cc2)n1	i	-0.18

Later entries:
SMILES	KCNQ2 inh	KCNQ2 inh baseline
COCCNC(=O)CN1N=C(c2ccc(OC)cc2)CCC1=O	i	-1.2
CCCCn1c(N)c(N(CC)C(=O)c2c(CC)noc2C)c(=O)[nH]c1=O	i	0.77
Cc1nnc(-c2cccc(Br)c2)c2cn(-c3ccccc3Cl)nc12	i	0.82
CC(O)CCc1nc2ccc(C(=O)O)cc2[nH]1 (stereo not drawn)	i	1
CCc1c(O)nc(SCc2nc3ccccc3c(=O)[nH]2)[nH]c1=O	i	-1
CCNC(=S)NCc1ccc(Cl)cc1	i	-0.67
O=C(OCCN1CCCCC1)c1ccccc1F	i	-0.42
O=C(CSc1ccc(-c2ccco2)nn1)N1CCCC1	i	0.01
COc1cccc(NC(=O)CN(C)C(=O)c2oc3c(ccc4ccccc43)c2C)c1	i	-0.82
COc1ccccc1N1CCN(C(c2ccc(Cl)cc2)c2nnnn2C(C)(C)C)CC1 (stereo not drawn)	i	0.26
Oc1ccc(C=NCC2COc3ccccc3O2)cc1 (stereo not drawn)	i	0.98
COc1cccc(C(=O)NCCOc2cc(C)cc(C)c2)c1	i	1.4
CC(=S)c1c(C)cc2cc(C)ccn12	i	-0.59
Cn1cccc1Cc1nnc(SCC(=O)Nc2cccc(Cl)c2)n1-c1ccc(F)cc1	i	0.73
COc1ccccc1NC(=O)Cn1cc(C(=O)C2CC2)c2ccccc21	i	0.74
COc1cc(C2C3C(=O)N(Cc4ccccc4)C(=O)C3ON2c2ccccc2)cc(OC)c1OC (stereo not drawn)	-6.4*	2.3*
Cc1cc(C)n(C2CCCCC2OC(=O)c2ccccc2F)n1 (stereo not drawn)	i	0.23
Cc1nn(Cc2ccc(F)cc2)c(C)c1NC(=O)c1noc2c1CCCCC2	i	0.28
COC(=O)c1ccc(NC(=O)c2sc3nc(-c4ccccc4)cn3c2C)cc1	i	-0.06
CC(=O)Nc1cccc(C(=O)Nc2cccnc2)c1	i	-1.7
Cc1cc(C)c(C)c(S(=O)(=O)Nc2ccccc2C(=O)NCCCn2ccnc2)c1C	i	1.1
COc1ccccc1CNC(=O)C1CCC(CNS(=O)(=O)c2ccc(F)cc2)CC1 (stereo not drawn)	i	1.1
CCOC(=O)C(NCc1ccc2c(c1)OCO2)(NC(=O)CC)C(F)(F)F (stereo not drawn)	i	1.1
O=[N+]([O-])c1ccc(COc2cccc(CNc3ccc(F)cc3)c2)cc1	i	-0.68
COc1ccc(C2C(C(=O)Nc3ccc(F)cc3)=C(C)Nc3nc(CCCO)nn32)cc1 (stereo not drawn)	i	-0.44
COc1ccc(NC(=S)N2CCN(Cc3ccccc3)CC2)c(OC)c1	i	0.85
COc1ccc(/C(N)=N/OC(=O)CSc2ccc(C)cc2)cc1OC	-9.2*	0.53*
O=C(/C=C/c1ccc2c(c1)OCO2)NCCSCc1ccc(Cl)cc1	i	0.22
Cc1cccc(Oc2c([N+](=O)[O-])c(=O)n(C)c3ccccc23)c1	i	-0.86
COC(=O)c1cc2occc2n1Cc1nc(-c2ccccc2F)oc1C	i	-1.1
CCOc1ccc2nc(NC(=S)N(C)C)sc2c1	i	0.01
CN(C)c1ccc(C(=O)c2ccccc2)cc1	i	-0.66
CCOc1ccc(/C=C2\CCc3ccccc3C2=O)cc1	i	0.87
CS(=O)(=O)NCCSCc1c(Cl)cccc1Cl	i	1.3
CS(=O)(=O)c1cc([N+](=O)[O-])c(Sc2nc3ccccc3[nH]2)c([N+](=O)[O-])c1	i	-2
Cc1ccc(NC(=O)CN(c2ccc(Cl)cc2)S(=O)(=O)c2cc([N+](=O)[O-])ccc2Cl)cc1	i	1.5
CCN(CC)S(=O)(=O)c1cccc(-c2nnc(SCC(=O)NC3CCCCCCC3)n2N)c1	i	2.6
CC1CC(=O)c2c(cc3c(-c4c(O)cc(O)c5c(O)c6c(cc45)OC(C)CC6=O)c(O)cc(O)c3c2O)O1 (stereo not drawn)	i	9.1
Cc1c(C(=O)NNC(=O)c2ccncc2)oc2ccc(Br)cc12	i	0.57
O=S(=O)(NCCc1ccccc1)c1cnc(Cl)c(Br)c1	i	0.01
O=S(=O)(c1ccc(Cl)cc1)N1CCN(CCc2ccncc2)CC1	i	-0.26
O=C(O)CCCC(=O)N1N=C(c2ccccc2)CC1c1cccs1 (stereo not drawn)	i	0.01
CCc1ccc(C(C)NC(=O)Cc2ccc(F)cc2)cc1 (stereo not drawn)	i	-2.7
Cc1cc(C(=O)NNC(=S)NCC2CCCO2)cs1 (stereo not drawn)	i	0.53
CCCC(C)c1nnc(NC(=O)C2CCCO2)s1 (stereo not drawn)	i	0.1
Cc1cccc(/C=C2\Oc3cc(OS(C)(=O)=O)ccc3C2=O)c1	i	-0.12
Cc1c(NC(=O)CSc2ccccc2C(=O)Nc2cccnc2)c(=O)n(-c2ccccc2)n1C	i	-0.94
O=C(NCC(c1ccco1)N1CCc2ccccc21)C(=O)Nc1ccc(F)cc1F (stereo not drawn)	i	-0.87
CCC(=O)Nc1cc(-c2nn(C)c(=O)c3ccccc23)ccc1N1CCCCC1	i	-0.9
CC(=O)Nc1ccc(S(=O)(=O)NCC(=O)OCC(=O)c2cc(C)n(-c3ccc4c(c3)OCO4)c2C)cc1	i	-1.4
CN1CCN(C(c2cccc(C(F)(F)F)c2)c2nnnn2Cc2ccccc2)CC1 (stereo not drawn)	i	-0.66
COc1ccc(CNC2CCCC2)c(OC)c1OC	i	0.85
COc1ccc(CCN2CC(C(=O)NCCc3ccc(F)cc3)CCC2=O)cc1 (stereo not drawn)	i	-0.19
COc1cccc(NC(=O)CN(C)C(C)C(=O)Nc2ccc(C(C)=O)cc2)c1 (stereo not drawn)	i	-0.15
CC(C)CC(=O)NC(=S)NNC(=O)c1ccc(NC(=O)C2CCCCC2)cc1	i	-0.44
COc1cc(-c2nc(-c3ccccc3)c(-c3cccs3)[nH]2)cc(OC)c1O	i	0.11
Cc1cccc(NC(=O)C(NS(=O)(=O)c2ccc3c(c2)CCC(=O)N3)c2ccccc2)n1 (stereo not drawn)	i	-0.42
COc1ccc(NC(=O)Cn2nnc(C(=O)NCCc3ccccc3)c2N)cc1	i	-0.7
CCOC(=O)C1=C(C)NC(C)=C(C(=O)OCC)C1c1cc2ccc(C)cc2[nH]c1=O	i	1.4
CCOc1cc(CN2CCCC(CNC(=O)c3ccc(F)cc3)C2)ccc1OC (stereo not drawn)	i	0.73
Continued:
SMILES	KCNQ2 inh	KCNQ2 inh baseline
CCOc1cc(C(=O)NCC(=O)N2CCC3(CC2)NCCc2[nH]cnc23)cc(OCC)c1OCC	i	0.06
COc1ccc(S(=O)(=O)N2CCC(C(=O)N3CCOCC3)CC2)cc1	i	1.4
Cc1cc(-c2[nH]nc3c2C(c2cccc(O)c2)C(C#N)=C(N)O3)c(C)s1 (stereo not drawn)	i	0.13
Cc1sc2ncnc(N(C)C3CCCCC3)c2c1C	i	-3
Cc1ccc(CSC2=NCCN2C(=O)C(C)Oc2ccccc2)cc1 (stereo not drawn)	i	0.35
O=C(Nc1ccc(O)c2c(=O)cc(-c3ccccc3Cl)oc12)c1ccc(Cl)c(Cl)c1	i	0.15
COc1ccccc1C(=O)NNC(=O)C12CC3CC(CC(C3)C1)C2	i	0.76
CC(=O)N1CC(C)Sc2ccc(S(=O)(=O)NCCc3ccccc3)cc21 (stereo not drawn)	i	0.15
COc1cc(C(=O)Nc2ccc3nc4n(c(=O)c3c2)CCCC4)ccc1Br	i	0.29
Cc1ccc(S(=O)(=O)c2cc(Nc3ccccc3)ccc2O)cc1	i	0.36
CC(C)CN(C(=O)CN(C)C(=O)c1ccco1)c1c(N)n(CC(C)C)c(=O)[nH]c1=O	i	0.09
CCn1cc(C(=O)N[C@@H](CCSC)C(=O)NCCOC)c(=O)c2cc3c(cc21)OCO3	i	2.1
COC(=O)c1ccccc1NC(=O)C1(S(=O)(=O)c2ccc(Cl)cc2)CC1	i	0.32
N#C/C(=C\c1ccc(O)c([N+](=O)[O-])c1)c1nc2ccccc2s1	i	-1.2

This is a subset. The share of hits here may be higher or lower than overall.
